High-throughput results (PubChem BioAssay)
E coli growth = inhibitors of Escherichia coli growth; 330,000 compounds, 0.21% hits; OD600 absorbance (concentration not given with the values); OD600, 23 h; active compounds read low;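 active = OD600 absorbance below the run mean of sample wells minus 3.6 SD, in any replicate, cut at about 0.56 in these data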;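 note: stock transfer was 300 nL into about 60 µL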
UCH37 DUB inh = inhibitors of human deubiquitinating enzyme UCH37 | Q9Y5K5 | purified proteasome/UCH37, Ub-AMC cleavage fluorescence | inhibition, % (no concentration beside the values) | 330,000 compounds, 0.33% hits | AID 588478;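 active = mean of two replicates above 20%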;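 note: 0% = compound-free wells with enzyme and 100% = wells lacking proteasome; stock transfer was 100 nL into about 20 µL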
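Assay system: Proteasome-bound UCH37. Buffer or medium: pH 7.4 Tris-HCl (50 mM) with ovalbumin, ATP-MgCl2, DTT. Incubation: 30 min preincubation with enzyme, 25 min cleavage at room temperature. Measured by: fluorescence, ex 355 nm, em 460 nm. Read-out basis: percent inhibition. Control set: wells without proteasome as full block, compound-free enzyme plus substrate as uninhibited.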
FGF22 binding = binders of recombinant human FGF22 by thermal shift | Q9HCT0 | SYPRO orange fluorescence; percent of sucrose octasulfate shift, DMSO zero | calls only at 9.99 µM | 340,000 compounds, 1.5% hits;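 active = melting point raised past a set limit in the mean and every replicate; inconclusive = no clear call; three in four hits are not shown here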
Target sequence (Q9HCT0 whole entry, looked up): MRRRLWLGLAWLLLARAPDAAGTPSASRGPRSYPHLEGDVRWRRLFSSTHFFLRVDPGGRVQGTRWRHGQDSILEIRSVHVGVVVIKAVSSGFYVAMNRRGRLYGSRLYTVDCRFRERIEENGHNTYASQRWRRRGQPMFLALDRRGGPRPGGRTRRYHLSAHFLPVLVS
RanGTP-Imp inh = inhibitors of RanGTP-importin-beta interaction, primary screen, biochemical, FRET, CFP-Ran, YFP-importin-beta, homogeneous | cell-free CFP-Ran/YFP-importin-beta FRET ratio | inhibition, % (concentration not given with the values) | 300,000 compounds, 1.1% hits;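 active = most replicates above 15%; inconclusive = exactly half above 15%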;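 note: 0% = DMSO wells and 100% = Ran loaded with GDP instead of GTP; wells of about 40 µL received 100 nL stock; the first replicate is given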
Vif A3G = inhibitors of Vif binding to APOBEC3G peptide, primary screen, biochemical, TR-FRET, GST-Vif 1-94, biotin-A3G peptide, dose response retest (AID 1117319) | TR-FRET GST-Vif / biotin-A3G peptide binding; higher % means a stronger effect; test concentration not given here; strong numbers were not always called active | 260,000 compounds, 0.57% hits | inhibition, %, or IC50 in µM where a hit was titrated;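 active = above the screen mean plus three standard deviations and confirmed in dose response; inconclusive = results disagree or hit not tested in dose response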;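 note: Vif residues 1-94 fused to GST binding biotinylated APOBEC3G peptide 110-148; 0% = full assay without inhibitor and 100% = GST in place of GST-Vif; retest series ran down from 100 µM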
HNF4A DNA FP = change in binding of human HNF4 alpha to DNA | P41235 | HNF4a-FITC DNA binding, fluorescence polarization, 1 h | activity change, % at 10 µM | 360,000 compounds, 0.3% hits | AID 1224865; in the data active = activity change above about 30%, passing the limit was not always enough;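 note: controls were the assay level and a saturating level of protein; the project sought stronger binding though the title names inhibitors; some compounds called inactive have numbers as strong as hits; positive values seem to mean higher polarization but the record does not say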
MLL AF4-AF9 inh = inhibitors of human MLL-AF4/AF9 interaction; AlphaScreen, biotin-AF4 peptide binding to FLAG-AF9; inhibition, % at 10 µM; 350,000 compounds, 0.47% hits;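 active = every replicate reaching a set inhibition limit, whatever the replicate mean, cut at about 25% in these data; inconclusive = mean inhibition reaches that limit but some replicates miss it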;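 note: 0% = plate neutral control median and 100% = total signal loss; the record names both 10 and 1 µM as test concentration; the first replicate is given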
Target sequence (P42568 whole entry, looked up): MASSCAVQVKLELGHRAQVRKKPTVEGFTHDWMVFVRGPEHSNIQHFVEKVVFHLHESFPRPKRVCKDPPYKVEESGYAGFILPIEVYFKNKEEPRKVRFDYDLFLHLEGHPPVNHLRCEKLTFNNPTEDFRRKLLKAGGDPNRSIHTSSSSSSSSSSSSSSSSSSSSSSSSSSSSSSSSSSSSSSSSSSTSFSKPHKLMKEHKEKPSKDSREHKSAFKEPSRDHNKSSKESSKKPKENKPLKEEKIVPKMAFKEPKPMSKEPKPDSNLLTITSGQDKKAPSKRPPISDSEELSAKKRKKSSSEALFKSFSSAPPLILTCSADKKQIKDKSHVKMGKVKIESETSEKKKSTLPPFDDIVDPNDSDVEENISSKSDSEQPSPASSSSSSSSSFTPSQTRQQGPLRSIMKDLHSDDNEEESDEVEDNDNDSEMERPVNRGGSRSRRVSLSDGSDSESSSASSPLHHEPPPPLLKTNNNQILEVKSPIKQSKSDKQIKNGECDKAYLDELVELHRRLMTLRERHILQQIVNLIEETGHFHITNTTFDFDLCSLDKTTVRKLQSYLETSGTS
An asterisk follows results filed as active; i = inactive; ? = inconclusive; . = not tested or not shown; & = joins results of further samples. This is a subset. The share of hits here may be higher or lower than overall.

smiles,E coli growth,UCH37 DUB inh,FGF22 binding,RanGTP-Imp inh,Vif A3G,HNF4A DNA FP,MLL AF4-AF9 inh
CCC(C)(C)n1nnnc1CN1CCC(n2c(C)nc3cc(C(F)(F)F)ccc32)CC1,0.66,5.8,.,1.1,6%,-0.8,.
CCOP(=O)(OCC)C(O)c1ccc(OC)cc1OC (stereo unspecified),0.69,-0.7,.,1.9,-6%,4.1,.
O=C(Cn1c(=S)[nH]c2ccccc2c1=O)N1CCC2(CC1)OCCO2,0.68,4.6,.,.,-2%,0.0,.
S=P(Nn1cnnc1)(c1ccccc1)c1ccccc1,0.67,1.9,i,-3.0,1%,2.5,-0.7
O=c1[nH]c(=O)n(Cc2ccc(F)cc2)c(O)c1C=NCCCN1CCOCC1,0.71,4.7,.,2.6,12%,5.5,.
Cc1cc(C)cc(N2C(=O)NC(=O)/C(=C\C=C\c3ccco3)C2=O)c1,0.68,0.3,i,-1.3,.,6.0,12
CC(C)C/C(=N/O)c1c[nH]c2ccccc12,.,.,.,0.1,-3%,-0.1,.
CC[N+]12CCC(CC1)C(=C(c1ccccc1)c1ccccc1)C2,0.73,1.0,.,0.0,5%,-0.9,.
CCOC(=O)c1c(C)n(Cc2ccccc2)c2ccc(OCC(O)CN3C(=O)CNC3=O)cc12 (stereo unspecified),0.71,2.8,i,2.7,-1%&0%,3.5,2.3
O=C1CC(=O)N(Cc2ccccc2)C(=S)N1,0.69,1.9,i,7.4,.,9.5,0.0
O=C(NCC1=C(c2ccc3ccccc3c2)C[C@@H]2CC[C@H]1N2Cc1ccco1)c1ccc([N+](=O)[O-])cc1,.,.,i,.,.,-3.0,28*
COC(=O)C1=C(c2cccc(OCc3ccccc3)c2)C[C@@H]2CC[C@H]1N2C,.,.,i,.,-3%,-0.2,5.3
COc1ccc(/C=C2\C(=O)NC(=O)N(CCC3=CCCCC3)C2=O)c(OC)c1,0.68,2.3,i,3.2,.,-3.0,-3.9
Cn1cccc1C1CCCN1CC(=O)Nc1ccc(C#N)c(Cl)c1 (stereo unspecified),0.71,4.6,i,.,-4%,2.6,7.3
COc1ccc(OC(=O)N(C)C[C@H]2OCc3cnnn3CCCC(=O)N([C@H](C)CO)C[C@@H]2C)cc1,.,.,i,.,.,-0.1,1.6&2.8&2.6
CSCCC(c1nnnn1-c1ccc2c(c1)OCCO2)N1CCC(n2c(=O)[nH]c3ccccc32)CC1 (stereo unspecified),.,.,i,.,.,4.3,1.0
COc1ccc(C2(C#N)CCN(C)CC2)cc1,0.68,0.4,i,1.8,.,0.0,3.6
O=c1[nH]c(=S)n(-c2ccccc2)c(O)c1C=NCc1ccccn1,0.66,9.4,i,-4.3,-11%,1.9,0.2
COC(=O)c1ccc(N2CCN(C)CC2)c([N+](=O)[O-])c1,0.68,8.2,i,0.2,.,0.7,-0.7
CCCCN1C(=O)NC(=O)C2(Cc3cc(C)ccc3N(C)C2)C1=O (stereo unspecified),0.83,0.4,.,-0.4,3%,3.4,.
Cc1cccc(OP(=O)(NCc2ccccc2)Oc2cccc(C)c2)c1,0.68,-0.9,i,0.2,.,1.9,-4.7
CN(C)S(=O)(=O)c1cc(NC(=O)C[N+]23CCN(CC2)CC3)ccc1Cl,0.69,3.9,i,7.0,.,1.2,-0.2
CC1(C)OC(c2ccccc2)=C/C(=C/C=C2C(=O)NC(=O)NC2=O)O1,0.71,13,i,-22,4%,184,-0.4
CCC1=Nc2cc(C(=O)N3CCC4(CC3)OCCO4)ccc2Sc2ccc(C)cc21,0.72,-0.7,i,0.3,-5%,2.8,1.6
CC(C)c1ccc(OCC(=O)N2CCN(C)CC2)c(Br)c1,0.62,3.0,.,-4.2,6%,1.7,.
CCCCn1c(=O)c(C(=O)Nc2ccccc2N)c(O)c2ccccc21,0.73,-8.5,i,4.7,0%,1.8,1.1
Cc1ccc(-[n+]2c(Cc3nn(-c4ccccc4)c(C)[n+]3-c3ccc(C)cc3)nn(-c3ccccc3)c2C)cc1,.,.,i,.,-4%,3.5,-0.8
Cc1ccc(N2C(=O)NC(=O)/C(=C\c3cc(C)n(-c4cc(C(=O)O)cc(C(=O)O)c4)c3C)C2=O)cc1,0.65,8.5,i,12,20%,-18,-0.8
C#CCOc1cc(C2C3=C(COC3=O)Nc3cc4c(cc32)OCO4)ccc1OC (stereo unspecified),0.69,-174,i,.,.,-1.2,0.2
CN1C2CCC1C(C(=O)O)C(O)C2 (stereo unspecified),0.65,0.4,i,.,.,1.7,.

Overlap with the part before: two compounds, then new ones.
smiles,E coli growth,UCH37 DUB inh,FGF22 binding,RanGTP-Imp inh,Vif A3G,HNF4A DNA FP,MLL AF4-AF9 inh
C#CCOc1cc(C2C3=C(COC3=O)Nc3cc4c(cc32)OCO4)ccc1OC (stereo unspecified),0.69,-174,i,.,.,-1.2,0.2
CN1C2CCC1C(C(=O)O)C(O)C2 (stereo unspecified),0.65,0.4,i,.,.,1.7,.
CCC(=O)OC1CCC2C3CCC4CC(=O)C=CC4(C)C3CCC12C (stereo unspecified),0.72,0.7,i,.,-11%,2.1,-3.9
CCOC(=O)C1(CCc2ccccc2)CCN(C2CCSCC2)CC1,0.65,1.5,i,?,30%,-2.2,6.2
Cc1cc(=O)oc2cc(OCC(=O)N3CCN(Cc4ccc5c(c4)OCO5)CC3)ccc12,0.62,-33,i,4.9,.,4.0,1.5
O=C(Cc1ccccc1)N1CCN(Cc2cccc(Br)c2)CC1,0.68,0.2,i,0.1,.,2.5,.
CN(C)c1ccc(NC(=O)CN2C(=O)CN=C(c3ccccc3)c3ccccc32)cc1,0.74,-0.6,.,2.6,11%,3.9,.
Cc1ccc(C2CC(=O)C(C=NCCN3CCN(C(=O)Cc4ccccc4)CC3)=C(O)C2)cc1 (stereo unspecified),0.68,2.4,.,-1.0,5%,-3.5,.
Cc1ccc(OC(=O)N(C)C[C@H]2OCc3cnnn3CCCC(=O)N([C@@H](C)CO)C[C@H]2C)cc1,.,.,i,.,2%,-8.1,-2.2&-0.2&-3.7
Nc1c(C(=O)NCCN2CCOCC2)c2nc3ccccc3nc2n1Cc1ccccc1,0.7,-292,i,63*,5%,-1.6,-15
COc1ccc(F)cc1C(=O)C1CCCN(Cc2cnc(C)s2)C1 (stereo unspecified),0.63,-0.1,i,0.4,5%,0.2,1.5
CCN1C[C@@]2(COC)C3[C@@H](OC)[C@H]4[C@@H]1[C@@]3(C1C[C@H]3[C@H](OC(C)=O)C1[C@]4(OC(C)=O)C[C@H]3OC)[C@@H](OC)C[C@H]2OC(C)=O (stereo partly specified),0.75,1.0,.,-0.2,.,2.4,.
CCCCCCn1c(=O)c(C(=O)Nc2nc(CC(=O)OCC)cs2)c(O)c2ccccc21,0.72,4.6,i,0.5,-6%,-0.6,.
C=CCn1c(O)c(/C=N/NC(=O)CCCC)c(=O)[nH]c1=S,.,.,i,-2.2,.,-3.7,-1.8
C#C[C@@]1(O)CCC2C3CCC4=C/C(=N/OCC(=O)NC(C(=O)NC(CC(C)C)C(=O)O)C(C)C)CC[C@]4(C)C3CC[C@@]21C (stereo partly specified),.,.,i,1.5,-7%,-1.3,0.5
O=C(c1ccc(N2CCCCCC2)c([N+](=O)[O-])c1)N1CCC2(CC1)OCCO2,0.69,4.7,i,2.9,0%,-1.3,0.5
CCN1CCOC(c2ccccc2)C1 (stereo unspecified),0.68,3.7,i,.,-13%,-3.5,2.4
CCCC(C)C1(CC)C(=O)NC(=Nc2ccccc2OC)NC1=O (stereo unspecified),0.71,1.3,.,-1.3,7%,-5.2,.
COc1c(O)ccc2c1-c1c3c(cc4c1C(C2)N(C)CC4)OCO3 (stereo unspecified),0.65,4.9,i,-0.5,?,-2.8,5.8
CN1CCC(N(C)c2nc(-c3ccccc3)nc3ccccc23)CC1,0.67,4.1,i,-3.7,0%,-11,1.4
O=C(Nc1cccnc1)c1c(O)c2c(n(Cc3ccccc3)c1=O)CCCC2,0.79,-2.2,.,-3.3,-12%,-0.5,.
COc1ccc(C(CNC(=O)c2ccc3c(c2)CCC3)N(C)C)cc1 (stereo unspecified),0.68,0.5,i,-1.0,25%,2.5,-0.9
COc1cc2c(cc1OC)C(C(=O)N(C)C1CCCCC1)C1CCCCN1C2=O (stereo unspecified),.,-1.5,.,2.0,-10%,4.0,.
CN(C)C(=Nc1ccccc1)P(=S)(N(C)C)N(C)C,0.68,-1.5,i,-3.9,1%,4.0,-1.2
COc1ccc(P2(=O)Nc3ccccc3N2)cc1,.,.,.,-3.8,16%,-1.9,.
O=c1[nH]c(=S)n(Cc2ccco2)c(O)c1C=NCc1cccs1,0.68,2.4,.,-0.1,11%,-2.2,.
CC(=NCCCN1CCOCC1)c1c(O)n(-c2ccccc2C)c(=O)[nH]c1=O,0.67,3.2,.,-1.6,2%,0.0,.
O=C(O)CN1C(=O)CN=C(c2ccccn2)c2cc(Cl)ccc21,0.67,4.6,i,1.8,8%,3.2,-4.0
CCOc1ccccc1CN1C2CCC1CC(c1ccc(C)cc1)C2 (stereo unspecified),0.6,5.8,i,-1.3,?,1.5,6.9
CCOC(=O)CC1c2ccccc2-n2nncc2CN1C (stereo unspecified),.,.,i,.,.,3.0,1.1
COc1ccc(C(CC(=O)N2CCC3(CC2)OCCO3)NS(=O)(=O)c2ccc(C)cc2)cc1 (stereo unspecified),0.74,4.1,.,0.2,?,3.3,.
O=C(COC(=O)Cc1ccccc1)NC(=O)NC1CCCCC1,0.64,0.2,i,0.9,-3%,-3.4,-0.7
O=C(Cc1ccccc1)OCc1ccccc1,0.55,0.8,i,.,.,-1.5,.
Oc1ccc(Cl)cc1,0.67,0.9,i,.,.,1.3,12
O=[N+]([O-])c1ccc(O)c([N+](=O)[O-])c1,0.63,8.4,i,0.4,.,-0.8,10
COc1cc(OC)cc(-n2nc(C(=O)N3CCC4(CC3)OCCO4)c3ccccc3c2=O)c1,0.76,2.1,.,.,23%,1.1,.
Cn1c(O)c(C(c2ccccn2)c2c(O)n(C)c(=S)n(C)c2=O)c(=O)n(C)c1=S,0.69,5.3,.,-3.0,9%,-1.7,.
COc1ccc(NC(=O)N2CCC3(CC2)OCCO3)cc1OC,0.69,1.7,.,5.7,19%,0.1,.
CN1C(=O)CCC2(C)C1=CCC1C2CCC2(C)C1CCC2(C)O (stereo unspecified),0.68,3.6,i,.,-4%,-4.5,-2.0
